PrP UTR inh: inhibition of PrP 5' UTR reporter expression; cell-based PrP 5' UTR mRNA reporter, plate reader; inhibition, % (no concentration beside the values); actives 0.35% (n = 340,000);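 active means every replicate at 50% or more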;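 further: 0 = median of the neutral control wells; tested in H4 reporter cells; numbers are from one replicate; inactives centre near -14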
Bead autofluor: flagged as autofluorescent in microsphere protease counterscreen; actives 3.1% (n = 360,000); compound autofluorescence counterscreen, microsphere flow cytometry; active compounds read high; AID 624483; fluorescence intensity (concentration not given with the values);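 active means at least 3 SD above the mean of all compounds, about 16000 in these data; inconclusive means too few beads counted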;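 further: 100 nL of 1 mM stock went into each well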
Sa ugtP lethal: growth inhibition of ugtP-null S. aureus, primary screen, RN4220 ugtP deletion, OD600. 16 h; some inactives read as strong as hits. actives 0.54% (n = 330,000). growth inhibition, % (concentration not given with the values). AID 1259309, 2017;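 active means z-score under -3 and OD600 up to 0.15 on both plates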;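 further: plate controls were untreated wells for no effect and antibiotic for full effect; wells of about 80 µL received 100 nL stock; the first replicate is given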
Mtb hypoxia rep: PubChem AID 1159583. fluorescence inhibition, % (concentration not given with the values). M. tuberculosis hypoxia-regulated fluorescent reporter, fluorescence. actives 0.1% (n = 300,000);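 active means 35 to 45% if threefold the growth effect, above 45% if 1.5-fold the growth effect; inactive means the rest, general growth blockers included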;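 further: wells of about 50 µL received 100 nL stock; 0% = vehicle wells and 100% = reference inhibitor wells; whole bacteria with a GFP reporter of the hypoxia response; strong numbers were not always called active; many hits fall short of the cut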
RN4220 kill: growth inhibition of S. aureus RN4220, primary screen, OD600 | 16 h | inhibition, % (test concentration not listed) | actives 0.33% (n = 330,000) | AID 1259311, 2017;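 active means z-score of -3 or lower and OD600 up to 0.18 on both plates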;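 further: plate controls were untreated cells for no effect and reference antibiotic for full effect; stock transfer was 100 nL into about 80 µL; one replicate is shown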
BJeLR viability: MLPCN primary cell-based screen for lethality selective to Ras in HRASV12 cells; BJeLR (HRASV12) viability, CellTiter-Glo ATP luminescence, 48 h; reference of the scale not given here; inhibition, % (no concentration beside the values); actives 0.17% (n = 300,000);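 active means replicate mean above 50%; inconclusive means above 50% but judged a plate artefact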;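 further: 50 nL library stock added to about 25 µL; numbers are from one replicate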
Mtb hypoxia rep growth: further read-out of Mtb hypoxia rep, marked with its call; growth inhibition, %; measured here: M. tuberculosis growth (absorbance);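 0% = vehicle and 100% = reference antibiotic; read after six days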
The depositor's hits bear a star; ? = inconclusive; / = not tested or not shown.

SMILES	PrP UTR inh	Bead autofluor	Sa ugtP lethal	Mtb hypoxia rep	Mtb hypoxia rep growth	RN4220 kill	BJeLR viability
CCOC(=O)C1CCCN(C(=O)CNC(=O)c2ccc(Br)o2)C1 (stereo not drawn)	/	/	10.8	11.7	14.1	4.9	/
CN(C)/N=C/C=C1\CCC/C(=C/c2cccs2)C1=O	-62.2	4713	/	/	/	/	2.4
N/C(=N\OC(=O)/C=C/c1ccc(Br)cc1)c1ccccn1	-58.1	2526	2.4	1.9	11.1	11.7	3.3
CC1CC(C)(C)NCc2ccccc21 (stereo not drawn)	-0.2	5265	-4.6	/	/	0.3	-5.9
O=C1CC(C(=O)N2CCN(Cc3ccccc3)CC2)CN1Cc1ccccc1 (stereo not drawn)	1.2	?	-3.2	-7.0	-8.4	-4.8	0.0
CCCOCC(O)CC(CC)C(=O)NNC(=S)Nc1ccccc1 (stereo not drawn)	-8.4	3175	-0.9	5.7	0.3	4.5	7.3
COC(=O)C(CCSC)NC(=O)Nc1cc(C)ccc1C (stereo not drawn)	/	/	-0.5	3.9	9.4	5.7	/
NC(=O)COC(=O)c1ccc(Oc2ccccc2)cc1	-17.1	8679	12.4	9.0	11.1	8.4	-6.8
CCOC(=O)c1cc(CC)sc1NC(=O)C(c1ccccc1)c1ccccc1	-17.8	2202	89.3*	13.8	11.0	0.1	7.7
COc1ccc(/C(N)=N/OC(=O)C2CCC(=O)N2S(=O)(=O)c2ccc(C)cc2)cc1 (stereo not drawn)	-92.2	1967	4.6	8.6	1.8	7.4	1.8
CC(=O)N1CC(=O)Nc2ccc(Cl)cc2C1c1ccc(F)cc1 (stereo not drawn)	-6.3	9845	1.5	2.6	1.9	0.5	1.6
CCOC(=O)/C(N=Nc1ccc(F)cc1)=C(/O)c1ccc([N+](=O)[O-])cc1	-14.7	3436	-5.6	-5.1	-1.7	0.3	-4.8
COc1ccc(C2CC(c3ccc(Br)cc3)=NN2C(=O)c2cccnc2)cc1 (stereo not drawn)	-7.9	8968	/	/	/	/	2.2
CCN=C1S/C(=C\c2cc(OCC)c(O)cc2Br)C(=O)N1CC	-8.3	6185	-24.7	2.7	-3.3	-3.0	-3.3
C=CCOc1ccc(S(C)(=O)=O)cc1	0.3	3503	-3.5	18.5	8.1	3.4	6.8
CCN(CC)CCNC(=O)c1cc2cc(Br)ccc2s1	1.0	3252	18.0	8.2	3.7	0.9	-9.3
CCOC(=O)C1CCN(C(=O)CCCn2nc(C)c3c(C)n(-c4ccc(C)cc4)nc3c2=O)CC1	9.2	4290	6.7	3.4	4.3	0.4	6.2
CCOC(=O)C1CCN(c2cc(=O)n(-c3ccc(OC)cc3)c(=O)[nH]2)CC1	-25.4	5319	9.9	6.8	3.8	-0.6	3.4
CN(C)S(=O)(=O)c1cccc(C(=O)N(Cc2ccc(F)cc2)Cc2ccco2)c1	-3.9	3958	0.6	10.4	5.2	-12.8	9.3
CC(C)CC(NC(=O)C1CCC(C)CC1)C(=O)NCCN1CCOCC1 (stereo not drawn)	-14.4	3723	3.2	9.9	4.3	1.8	-0.7
CCCn1c(C)cc(C(=O)COC(=O)c2ccc[nH]c2=O)c1C	50.6	2009	-5.7	-9.8	4.0	-2.7	-5.4
CCCc1cc(=O)oc2cc(OC(C)C(=O)NC3CC(C)(C)NC(C)(C)C3)ccc12 (stereo not drawn)	-13.5	5630	-0.2	-10.1	-13.0	2.2	-0.5
COC(=O)[C@@]12CCCN1C(c1ccc(-c3ccc(F)cc3)cc1)C1C(=O)N(C)C(=O)C12 (stereo partly drawn)	/	/	3.9	16.1	9.1	1.9	/
CCOC(=O)CNC(=O)CCc1nnc2ccc(N3CCC(C)CC3)nn12	-12.7	3915	-2.3	11.6	9.6	2.9	2.1
COc1ccc(C(=O)NCc2nnc(SCC(=O)N3CCOCC3)o2)cc1OC	-17.8	2169	9.5	1.3	-0.5	-1.1	-2.3
O=C(O)COc1ccc(C=NNC(=O)c2cccc3ccccc23)cc1	/	/	11.5	-0.2	1.8	-0.5	/
COC(=O)c1cc(C(=O)OCC(=O)NC(=O)c2ccccc2)cc([N+](=O)[O-])c1	-12.7	?	13.0	4.1	7.9	1.5	-10.2
CN(C)C(CNC(=O)CNC(=O)Cc1cccc2ccccc12)c1ccccc1 (stereo not drawn)	-16.4	3134	-4.2	-1.3	-5.8	3.8	5.4
O=C(c1ccccc1)N1CCN(C(=O)c2ccc(OC(F)(F)F)cc2)CC1	-12.1	4825	4.1	/	/	3.8	0.0
O=C(CCNC(=O)Cn1ccc2ccccc2c1=O)NCCc1ccc(Cl)cc1	-21.0	8961	-7.4	8.6	0.3	2.1	-5.4
O=C(NNC(=O)C1C2CCCCC21)c1coc(=O)c(Br)c1 (stereo not drawn)	-21.5	3939	6.9	8.7	6.9	6.5	0.1
CS(=O)(=O)c1nc(-c2ccccc2)cc(-c2ccccc2)c1C#N	-11.1	2769	6.1	/	/	46.1	-1.7
Cc1cc(NC(=O)c2ccc3c(c2)C(=O)N(CCC(C)C)C3=O)no1	-19.1	2809	2.0	/	/	1.8	-1.8
NCCCn1c(C(=O)c2ccc(Cl)cc2)c2ccc([N+](=O)[O-])cc2[n+]1[O-]	-3.6	3696	21.1	22.9	28.0	30.6	0.9
CC(NCC(O)COCc1cccs1)C1CC2CCC1C2 (stereo not drawn)	-17.6	3823	-0.1	8.8	11.5	3.0	5.6
O=C(Nc1ccc(Cl)cc1)C1C2C=CC3(O2)C1C(=O)N(CCN1CCCCC1)C3C(=O)NC1CCCCC1 (stereo not drawn)	-9.8	4628	-5.3	0.9	-1.3	3.3	3.3
CC(C)c1onc(C(=O)NC(C)c2ccccc2)c1[N+](=O)[O-] (stereo not drawn)	-4.7	2205	6.1	14.8	12.9	12.1	-7.7
O=C(CSc1nc(-c2ccco2)cc(C(F)(F)F)n1)Nc1ccc(C(=O)N2CCCCC2)cc1	-38.9	5243	0.0	11.0	4.7	6.2	15.9
Cc1ccc(C)c(/C(O)=C2\C(=O)C(=O)N(Cc3cccnc3)C2c2cccnc2)c1 (stereo not drawn)	-5.0	4838	5.0	/	/	1.2	0.8
CC(=NS(=O)(=O)c1ccc(C)cc1)N1CCN(S(=O)(=O)c2ccccc2)C1	/	/	-3.6	-5.4	-3.7	0.4	/
O=c1c2ccccc2nc(/C=C/c2ccc(O)cc2)n1-c1cccc(O)c1	-44.5	4743	/	/	/	/	8.6
Cc1cc(C)c(S(=O)(=O)NCC(=O)NCc2cc(=O)n(C)c(=O)n2C)c(C)c1	-3.0	4227	1.3	-1.0	2.4	0.3	10.4
CC(=O)N(CC1CCCO1)c1nnc(-c2cnccn2)s1 (stereo not drawn)	-1.8	3179	5.9	/	/	3.3	7.7
CCN(C(=O)COC(=O)c1cc(S(=O)(=O)Nc2c(C)n(C)n(-c3ccccc3)c2=O)ccc1Cl)C1CCCCC1	-2.2	4459	0.3	1.6	-3.1	1.0	4.5
COCCNC(=O)Cn1c(=O)n(Cc2ccc(C(=O)NCc3ccco3)cc2)c(=O)c2ccccc21	-25.1	11269	5.3	-4.1	1.0	5.4	-5.5
CCN(CC)c1nc(OC)nc(-n2nnc(C(C)=O)c2C)n1	-8.9	2638	-0.9	9.5	5.5	8.7	7.2
C[C@]1(C(=O)NCCN2CCOCC2)C=CC(Cc2ccccc2)N1C(=O)c1ccccc1 (stereo partly drawn)	/	/	5.7	19.3	6.3	6.7	/
CCC[C@@H](CN1CCC[C@H]1CN1C(N)=NC[C@H]1C(C)C)N1C[C@@H]([C@H](C)CC)N(CCCC2CCCC2)C1=N	-9.2	3001	-6.7	11.0	19.0	-4.5	/
COc1ccc2c(c1OC)C(=O)OC2Nc1nc(-c2ccc([N+](=O)[O-])cc2)cs1 (stereo not drawn)	-25.8	5256	9.7	6.3	16.8	3.4	-5.9
O=C(Nc1cnn(Cc2ccccc2)c1)NC12CC3CC(CC(C3)C1)C2	-20.3	4127	6.0	/	/	-6.1	-2.8

A different layout for some results above:
| compound | PrP UTR inh | Bead autofluor | Sa ugtP lethal | Mtb hypoxia rep | Mtb hypoxia rep growth | RN4220 kill | BJeLR viability |
| --- | --- | --- | --- | --- | --- | --- | --- |
| O=c1c2ccccc2nc(/C=C/c2ccc(O)cc2)n1-c1cccc(O)c1 | -44.5 | 4743 | / | / | / | / | 8.6 |
| Cc1cc(C)c(S(=O)(=O)NCC(=O)NCc2cc(=O)n(C)c(=O)n2C)c(C)c1 | -3.0 | 4227 | 1.3 | -1.0 | 2.4 | 0.3 | 10.4 |
| CC(=O)N(CC1CCCO1)c1nnc(-c2cnccn2)s1 (stereo not drawn) | -1.8 | 3179 | 5.9 | / | / | 3.3 | 7.7 |
| CCN(C(=O)COC(=O)c1cc(S(=O)(=O)Nc2c(C)n(C)n(-c3ccccc3)c2=O)ccc1Cl)C1CCCCC1 | -2.2 | 4459 | 0.3 | 1.6 | -3.1 | 1.0 | 4.5 |
| COCCNC(=O)Cn1c(=O)n(Cc2ccc(C(=O)NCc3ccco3)cc2)c(=O)c2ccccc21 | -25.1 | 11269 | 5.3 | -4.1 | 1.0 | 5.4 | -5.5 |
| CCN(CC)c1nc(OC)nc(-n2nnc(C(C)=O)c2C)n1 | -8.9 | 2638 | -0.9 | 9.5 | 5.5 | 8.7 | 7.2 |
| C[C@]1(C(=O)NCCN2CCOCC2)C=CC(Cc2ccccc2)N1C(=O)c1ccccc1 (stereo partly drawn) | / | / | 5.7 | 19.3 | 6.3 | 6.7 | / |
| CCC[C@@H](CN1CCC[C@H]1CN1C(N)=NC[C@H]1C(C)C)N1C[C@@H]([C@H](C)CC)N(CCCC2CCCC2)C1=N | -9.2 | 3001 | -6.7 | 11.0 | 19.0 | -4.5 | / |
| COc1ccc2c(c1OC)C(=O)OC2Nc1nc(-c2ccc([N+](=O)[O-])cc2)cs1 (stereo not drawn) | -25.8 | 5256 | 9.7 | 6.3 | 16.8 | 3.4 | -5.9 |

Next part
SMILES	PrP UTR inh	Bead autofluor	Sa ugtP lethal	Mtb hypoxia rep	Mtb hypoxia rep growth	RN4220 kill	BJeLR viability
NS(=O)(=O)c1ccc(CCNC(=O)CCCC2=NS(=O)(=O)c3ccccc3N2)cc1	10.4	3340	8.0	12.4	3.6	4.7	-3.2
CCOc1ccc(-n2nnnc2SCC(=O)Nc2cccc(O)c2)cc1	-32.2	3140	13.2	-4.4	0.0	6.4	-1.4
Cc1c(NC(=O)c2ccc([N+](=O)[O-])o2)cccc1-c1nc2ncccc2o1	-21.9	5991	10.5	20.5	21.6	19.9	0.4
CC(C)COc1ccc(-c2nn(-c3ccccc3)cc2C(=O)Nc2nccs2)cc1	-19.5	5239	58.0	-3.6	4.3	41.1	1.4
COc1cc2c(cc1OC)CN(C(=O)CSc1nnc3scc(-c4ccccc4)n13)CC2	-1.6	4347	1.8	/	/	3.5	-2.7
COc1cc(C(=O)N2CCC(n3c(C)nc4cc(F)ccc43)CC2)cc(OC)c1OC	-36.5	9534	2.4	-1.8	5.9	2.8	0.2
O=C(Nc1cccc(C(F)(F)F)c1)c1cccnc1N1CCCC1	-5.8	2462	-2.4	14.1	4.6	6.6	1.7
CCN(Cc1ccccc1)C(=O)c1ccc(NC(=O)c2ccc(OC)cc2)cc1	-1.0	6416	8.6	-6.7	-7.3	6.5	-1.2
O=S(=O)(c1cccs1)N1CN(CC2CCCO2)c2nc3ccccc3nc21 (stereo not drawn)	-14.2	10595	-4.0	0.2	2.7	3.4	1.6
COc1ccc(-n2c(COc3ccccc3)nnc2SCc2ccc(C#N)cc2)cc1	-15.1	19781*	-7.7	0.1	3.7	0.1	2.9
NC(=O)CC(NC(=O)Cc1cccc2ccccc12)c1ccc(NC2CCCC2)c([N+](=O)[O-])c1 (stereo not drawn)	-20.3	3587	-4.4	11.4	1.2	-0.5	/
COc1ccc2[nH]c(=O)c(CN(Cc3cccs3)S(=O)(=O)c3c(C)ccc4nsnc34)cc2c1	-8.7	5376	-20.2	-6.1	-12.1	-3.8	1.8
Cc1nnc(C)n1/N=C/c1ccccn1	-20.2	2990	/	/	/	/	4.6
COc1ccccc1C(C)NC(=O)CCNC(=O)c1ccc(Cl)cc1 (stereo not drawn)	-16.9	3508	5.8	12.3	6.7	9.1	/
O=C(Nc1ccc(F)cc1)N1CCN2C(=O)c3ccccc3C12c1ccccc1 (stereo not drawn)	-18.6	2111	14.6	/	/	-3.0	4.8

From PubChem

An unsorted share of the library. About 4% of those tested had a hit in this group.
